Screening data as filed in PubChem BioAssay.
HNF4A DNA FP: change in binding of human HNF4 alpha to DNA. P41235. HNF4a-FITC DNA binding, fluorescence polarization, 1 h. activity change, % at 10 µM. 360,000 compounds, 0.3% hits; in the data active = activity change above about 30%, passing the limit was not always enough;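 also: controls were the assay level and a saturating level of protein; the project sought stronger binding though the title names inhibitors; some compounds called inactive have numbers as strong as hits; positive values seem to mean higher polarization but the record does not say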
Target sequence (P41235 whole entry, looked up): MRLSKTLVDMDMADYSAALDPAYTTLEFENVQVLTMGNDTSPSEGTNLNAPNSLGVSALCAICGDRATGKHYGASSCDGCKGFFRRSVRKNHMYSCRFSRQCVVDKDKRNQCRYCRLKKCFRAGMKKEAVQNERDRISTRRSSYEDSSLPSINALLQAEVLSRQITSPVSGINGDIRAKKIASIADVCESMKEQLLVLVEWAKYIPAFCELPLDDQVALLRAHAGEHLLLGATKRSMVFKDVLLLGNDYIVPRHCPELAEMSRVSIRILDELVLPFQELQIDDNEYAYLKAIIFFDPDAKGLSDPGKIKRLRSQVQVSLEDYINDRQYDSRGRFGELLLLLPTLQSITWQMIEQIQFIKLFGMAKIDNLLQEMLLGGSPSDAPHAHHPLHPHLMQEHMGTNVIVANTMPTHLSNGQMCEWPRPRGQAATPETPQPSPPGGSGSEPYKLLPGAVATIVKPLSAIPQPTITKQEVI
Ecoli growth: inhibitors of Escherichia coli growth. 330,000 compounds, 0.21% hits. OD600 absorbance (test concentration not listed). AID 1053175. OD600, 23 h; active compounds read low;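 active = OD600 absorbance below the run mean of sample wells minus 3.6 SD, in any replicate, cut at about 0.56 in these data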;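 also: stock transfer was 300 nL into about 60 µL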
UCH37 inh: inhibitors of human deubiquitinating enzyme UCH37; Q9Y5K5; purified proteasome/UCH37, Ub-AMC cleavage fluorescence; inhibition, % (concentration not given with the values); 330,000 compounds, 0.33% hits; AID 588478;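 active = mean of two replicates above 20%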;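 also: 0% = compound-free wells with enzyme and 100% = wells lacking proteasome; stock transfer was 100 nL into about 20 µL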
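Reagent: Ub-AMC substrate; assay system: Proteasome-associated human UCH37 deubiquitinase; controls: no-proteasome and no-compound wells; read-out: % inhibition of Ub-AMC cleavage fluorescence; timing: 30 min preincubation with enzyme, 25 min cleavage at room temperature; signal: AMC fluorescence from Ub-AMC cleavage, excitation 355 nm, emission 460 nm; buffer or medium: Tris-HCl pH 7.4 plus ovalbumin, ATP-MgCl2, DTT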
B2AR ag: agonists of human beta-2 adrenergic receptor inducing internalization. P07550. Am2.2-beta2AR cells, FAP receptor internalization, flow cytometry; reference of the scale not given here. response, % (no concentration beside the values). 340,000 compounds, 0.43% hits;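 active = response above a set limit, near 3 SD of response in nonfluorescent compounds, cut at about 42% in these data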;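 also: stock transfer was 100 nL into about 11 µL; a reference agonist was the positive control; negative values mostly stem from fluorescent compounds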
Target sequence (P07550 whole entry, looked up): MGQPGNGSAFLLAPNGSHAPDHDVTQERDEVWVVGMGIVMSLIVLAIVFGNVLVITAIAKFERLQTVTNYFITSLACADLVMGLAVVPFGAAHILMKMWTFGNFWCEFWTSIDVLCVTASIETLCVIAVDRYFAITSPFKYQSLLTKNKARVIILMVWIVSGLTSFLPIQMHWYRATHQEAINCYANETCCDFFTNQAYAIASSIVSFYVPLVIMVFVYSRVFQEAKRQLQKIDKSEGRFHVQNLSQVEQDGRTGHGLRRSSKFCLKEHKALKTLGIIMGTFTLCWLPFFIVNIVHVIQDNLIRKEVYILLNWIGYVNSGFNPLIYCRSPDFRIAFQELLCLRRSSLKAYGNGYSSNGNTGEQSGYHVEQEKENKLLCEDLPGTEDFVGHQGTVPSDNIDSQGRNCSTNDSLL
ALR inh: inhibitors of human sulfhydryl oxidase ALR; 290,000 compounds, 3.8% hits; AID 485317; purified ALR, DTT oxidation, H2O2 HRP-luminol luminescence; P55789; inhibition, % (test concentration not listed);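 active = mean and each replicate at 75% or more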;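 also: stock transfer was 7.5 nL into about 7.5 µL; 0% = neutral wells and 100% = wells with inactivated enzyme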
FGF22 binding: shifts melting point of recombinant human FGF22; Q9HCT0; recombinant FGF22 thermal shift, SYPRO orange fluorescence; percent of sucrose octasulfate shift, DMSO zero; calls only at 9.99 µM; 340,000 compounds, 1.5% hits;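 active = melting point raised past a set limit in the mean and every replicate; three in four hits are not shown here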
Target sequence (Q9HCT0 whole entry, looked up): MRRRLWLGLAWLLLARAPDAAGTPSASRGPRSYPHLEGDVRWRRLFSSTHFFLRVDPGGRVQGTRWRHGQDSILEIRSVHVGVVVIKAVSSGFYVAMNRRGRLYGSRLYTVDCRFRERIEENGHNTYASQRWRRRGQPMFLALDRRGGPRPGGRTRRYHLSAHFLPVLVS
rRNA inh HTS: inhibitors of bacterial rRNA selective over humanized ribosomes; AID 720706; 350,000 compounds, 1.6% hits; GFP signal change (wild-type ribosome), % (concentration not given with the values); E. coli WT GFP vs humanized-ribosome RFP mutants, fluorescence, 24 h; active compounds read low; DMSO median 0, no signal -100;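 active = significant combined selectivity score with lowered wild-type GFP, culture density cut under 30%, mutant RFP and density less affected; inactive = any of these conditions unmet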; also: one replicate is shown; some compounds called inactive have numbers as strong as hits
rRNA inh HTS OD600: second read-out of rRNA inh HTS, no call of its own (marks repeat the call); OD600 change, %; measured here: OD600 growth;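 optical density of the mix in the first replicate; 0 = DMSO median and -100 = no signal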
rRNA inh HTS RFP: also measured in rRNA inh HTS; calls as there; RFP signal change, %; measured here: RFP humanized mutant strains;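 first replicate; 0 = DMSO median and -100 = no signal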
* = called active by the depositor; i = inactive; · = no result given; & = joins results of further samples. A portion of the library; the hit share may differ from the screen's.

B2AR ag,UCH37 inh,rRNA inh HTS OD600,HNF4A DNA FP,FGF22 binding,rRNA inh HTS RFP,ALR inh,rRNA inh HTS,Ecoli growth,compound
10,5.4,-1,-3.6,i,3.1,-18,-3,·,CC(C)C[C@H](NC(=O)c1[nH]cnc1C(=O)N[C@@H](C)C(=O)OCc1ccccc1)C(=O)OC(C)(C)C
14,4.6,6,5.4,i,-1.2,-13,-3,0.7,Cc1nc2sccn2c(=O)c1S(=O)(=O)N1CCN(c2cccc(Cl)c2)CC1
-3,1.0,·,-2.5,·,·,·,·,0.71,CN(C(=O)CSc1nnc(Cc2ccccc2F)n1N)C1CCS(=O)(=O)C1 (stereo unspecified)
4,1.8,10,2.4,i,2.5,1,5,0.68,CCOc1ccc(CCNC(=O)COC(=O)c2cccnc2SC)cc1OCC
·,·,5,-1.2,i,-2.0,·,2,·,COc1cccc(CNc2nc3cc(-c4cscc4C)sc3c(=O)n2C)c1
-9,2.8,15,0.2,i,-0.1,-7,11,0.65,O=C(CNC(=O)c1ccc(Br)cc1)c1ccc(Br)cc1
-1,2.2,14,-17,i,4.1,16,15,0.7,O=C(O)C1Oc2cc3ccccc3cc2O1
-5,·,3,-1.6,i,-0.8,·,0,·,O=C(Cc1ccccc1[N+](=O)[O-])NCC1(c2cccc3c2OCO3)OCCO1
1,1.8,·,0.4,·,·,-15,·,0.72,N#CC1=C(SCC(=O)NC2CC2)NC(=O)C(C#N)C12CCCCC2 (stereo unspecified)
7,-1.0,4,-2.2,i,-3.4,71,1,0.7,COc1ccc(NCc2cccnc2)cc1
-5,-144,-12,3.1,i,-0.8,-5,-2,0.69,CC(=O)N1N=C(c2ccc3ccccc3c2)OC12CCCC2
0,1.6,8,1.4,i,-2.0,12,11,0.65,CCOCCSc1n[nH]c(=O)n1CCc1ccccc1
-4,-3.8,·,1.6,·,·,-3,·,0.74,COc1ccc2c(c1)CC(C1(O)C(=O)N(C)c3ccccc31)C2=O (stereo unspecified)
4,1.1,·,13,·,·,-9,·,0.71,COc1ccc(S(=O)(=O)Nc2ccc3c(c2)COC3=O)cc1OC
-2,·,1,1.7,i,-5.9,0,8,·,NC(=O)N/N=C/c1cccc(C(F)(F)F)c1
1,3.7,·,0.5,·,·,-3,·,0.77,O=C(c1ccc(Cl)c(Cl)c1)N1CCOCC1
-1,1.6,-6,0.6,i,2.7,4,-15,0.64,CC(NC(=O)COC(=O)c1c[nH]c2ccccc12)c1ccccc1 (stereo unspecified)
4,1.9,4,-1.0,i,-2.1,-9,12,0.68,CCOC(=O)C1=C(C)N(CCO)C(=O)NC1c1ccccc1 (stereo unspecified)
7,·,4,0.7,i,0.2,5,3,·,Cc1nc(NCCc2ccc(F)cc2)c2nnn(Cc3ccccc3)c2n1
·,·,2&6,-0.5,i,-3.1&-3.7,·,0&-2,·,O=C(Nc1ccc(F)cc1)N[C@@H]1CC[C@@H](CCn2cc(-c3ccc(F)cc3)nn2)O[C@@H]1CO
-16,0.6,19,2.2,i,1.6,-2,5,0.66,Cc1c(NC(=O)Nc2c(Cl)cccc2Cl)c(=O)n(-c2ccccc2)n1C
14,·,8,4.8,i,0.1,11,11,·,O=C(N/N=C/c1ccc(OCC(=O)N2CCOCC2)cc1)c1ccccc1Cl
-7,2.8,3,2.0,i,-1.5,·,2,0.65,Cc1ccc(S(=O)(=O)NCC(=O)OCC(=O)N(C)C2CCCCC2)cc1
0,-1.5,·,5.2,·,·,-10,·,0.73,CCOc1ccc(C(CC(=O)O)NS(=O)(=O)c2ccc(C)cc2)cc1OC (stereo unspecified)
-18,·,·,-3.0,·,·,-2,·,·,C/C(=N/NC(=O)CSCc1ccc(Cl)cc1)c1cccc(NC(=O)c2ccccc2)c1
6,-4.0,16,2.5,·,1.2,-15,13,0.72,O=C(NC1CCCCC1)C(c1ccc(F)cc1)N(CCN1CCOCC1)C(=O)c1ccc(-c2ccccc2)[nH]1 (stereo unspecified)
2,1.7,17,3.6,i,-1.6,-21,10,0.76,COc1ccc(N2C(=O)C3CCCN3C2c2cccc(OC)c2)cc1 (stereo unspecified)
14,-0.2,1,-0.8,i,3.3,-24,12,0.66,COc1ccc(/C=C/C(=O)O)cc1S(=O)(=O)NCc1cccnc1
4,i,11,-2.0,i,0.8,-2,3,0.71,COCCCn1c(C(=O)NC2CCCCC2C)cc2c(=O)n3cccc(C)c3nc21 (stereo unspecified)
·,·,12,1.5,i,-1.7,·,11,·,CC(C)N1CCC(C)(C(=O)Nc2ccc(Cl)c(Cl)c2)C1 (stereo unspecified)
1,2.1,5,-1.7,i,5.6,-7,9,0.71,CC(C)NC(=O)COC(=O)/C=C/c1ccco1
-3,0.2,1,-4.0,i,-2.0,1,11,0.72,COc1ccc(Cc2n[nH]c(=S)n(N)c2=O)cc1
-6,-15,-2,6.8,i,-6.3,0,7,0.7,CCOC(=O)CC(=O)CSc1nc(-c2ccccc2)cc(-c2ccccc2)c1C#N
-1,3.4,7,2.8,i,-2.6,-5,3,0.73,CC(=O)Nc1ccc(C(=O)NCC(c2ccco2)N(C)C)cc1 (stereo unspecified)
-15,·,-2,-4.7,i,0.8,-1,-1,·,COc1ccc(Nc2nc(NCCCN3CCOCC3)nc(N)c2[N+](=O)[O-])cc1
·,·,-16,-10,i,5.3,·,0,·,COc1ccc(CC(=O)NNC(=S)NC(=O)c2cc(OC)c(OC)c(OC)c2)cc1
1,2.8,8,-3.4,i,-1.9,98*,13,0.71,O=C(CNC(=O)c1ccco1)NCC(=O)OCC(=O)c1ccc(Cl)c([N+](=O)[O-])c1
-9,5.9,6,-1.6,i,-2.7,0,3,0.7,O=C(COC(=O)CCC(=O)c1cccs1)NCc1cccs1
-1,2.1,7,-3.4,i,-0.5,-4,16,0.71,Cn1nc(C(=O)OCc2ccc(F)cc2)c2ccccc2c1=O
-2,2.5,-7,-1.7,i,0.3,-2,-5,0.66,Cc1cc(C)nc(CCNC(=O)c2cc(COc3ccccc3)on2)n1
-3,-0.7,-12,-1.6,i,-3.5,·,-6,0.69,O=C(COC(=O)CSc1cccc2cccc(Cl)c12)Nc1ncc(C(F)(F)F)cc1Cl
16,2.4,6,0.6,i,1.1,2,17,0.69,CC(=O)N1CCC(N(CCN2CCOCC2)C(=S)Nc2ccc(C)c(C)c2)CC1
3,2.9,-83,3.1,·,-25,-1,-62,0.69,Cc1cc(S(=O)(=O)Nc2cccc(Cl)c2)c(C)s1
-10,8.0,-2,-0.1,i,-3.9,-12,-2,0.64,NC(=O)Cn1c(=O)n(C2CCCCC2)c(=O)c2c3c(sc21)CCCCC3
12,·,-3,2.2,i,-2.5,-7,3,·,CC1(C)CC2CC(C)(CN2S(=O)(=O)c2ccc(C(=O)Nc3cccc(S(=O)(=O)N4CCOCC4)c3)cc2)C1 (stereo unspecified)
3,0.0,-1,-3.2,i,0.2,-7,2,0.71,C[C@H](CO)N1C[C@H](C)[C@H](CN(C)CC2CCCCC2)Oc2ccc(NS(=O)(=O)c3ccc(F)cc3)cc2CC1=O
11,2.1,·,-4.9,·,·,15,·,0.67,O=C(CSc1nc2ccsc2c(=O)n1NC(=O)c1ccccc1)NCc1ccco1
-6,0.4,-4,0.6,i,1.7,-6,-2,0.69,O=C(CCCC(=O)N(CC(=O)NC1CCCCC1)c1ccc(F)cc1)Nc1ccccn1
-5,6.6,·,3.3,·,·,-19,·,0.72,Cc1cc(NC(=O)CC23CC4CC(C2)CC(CC(=O)Nc2cc(C)on2)(C4)C3)no1
-2,3.0,13,0.5,i,3.6,-1,-1,0.64,COc1cc(OC)cc(C(=O)NC(C)CNc2ccc(Cl)cc2[N+](=O)[O-])c1 (stereo unspecified)
3,-13,4,0.1,i,-1.7,-3,2,0.76,Cc1cc(C)c(-c2csc(NC(=O)c3n[nH]c(=O)c4ccccc34)n2)c(C)c1
0,1.3,·,-3.6,·,·,10,·,0.74,COc1ccc(CCN(C)C(=O)N2CCOCC2)cc1OC
·,·,-2,1.6,i,-7.5,·,-3,·,COc1ccc(C2=CCCCCC2)cc1OC
-13,1.3,-9,1.7,i,1.7,12,-5,0.76,O=C(CSc1nnc(-c2ccccc2Cl)o1)N1CCCCC1
-1,3.2,·,-0.7,·,·,-1,·,0.66,CCCCN(CCCC)S(=O)(=O)c1ccc(N2CCCC2=O)c([N+](=O)[O-])c1
-1,4.5,·,-0.6,·,·,-1,·,0.67,NC(=O)C1CCN(c2ccc(C(F)(F)F)cc2[N+](=O)[O-])CC1
-6&-7,2.9&0.4,9,2.4&-4.2,i,5.1,-5,4,0.65&0.76,OC(COCC1COc2ccccc2O1)CN1CCN(c2ccccn2)CC1 (stereo unspecified)
-5,-8.5,-7,-2.8,·,-0.4,·,-1,0.66,Cn1c(=O)c2[nH]c(Cc3cccc(O)c3)nc2n(C)c1=O
7,1.3,-7,-3.0,i,-6.3,-2,1,0.69,O=C(CN1C(=O)NC2(CCCC2)C1=O)Nc1cc(C(F)(F)F)ccc1N1CCOCC1
-1,0.3,·,1.4,·,·,·,·,0.68,COc1cccc(-c2nnc(SCC3CNC(=O)O3)n2-c2ccc(Cl)cc2)c1 (stereo unspecified)
0,·,·,0.1,·,·,-6,·,·,COc1cc(/C=N/O)ccc1OCc1ccc(C(=O)O)cc1
2,0.3,-29,5.1,i,-8.9,-13,-17,·,CS(=O)(=O)c1ccc(CNC(=O)C2(C(F)(F)F)C/C(=C\Cc3ccccc3)CCCO2)cc1 (stereo unspecified)
·,·,-7,2.7,i,-1.4,·,0,·,COc1ccc(CN(C)C(=O)C(Cc2ccccc2)NC(=O)c2ccccc2)c(OC)c1OC (stereo unspecified)

Filtered by structure, the entries above with an aryl thioether with sulfur outside any ring (eight)
B2AR ag,UCH37 inh,rRNA inh HTS OD600,HNF4A DNA FP,FGF22 binding,rRNA inh HTS RFP,ALR inh,rRNA inh HTS,Ecoli growth,compound
-3,1.0,·,-2.5,·,·,·,·,0.71,CN(C(=O)CSc1nnc(Cc2ccccc2F)n1N)C1CCS(=O)(=O)C1 (stereo unspecified)
4,1.8,10,2.4,i,2.5,1,5,0.68,CCOc1ccc(CCNC(=O)COC(=O)c2cccnc2SC)cc1OCC
0,1.6,8,1.4,i,-2.0,12,11,0.65,CCOCCSc1n[nH]c(=O)n1CCc1ccccc1
-6,-15,-2,6.8,i,-6.3,0,7,0.7,CCOC(=O)CC(=O)CSc1nc(-c2ccccc2)cc(-c2ccccc2)c1C#N
-3,-0.7,-12,-1.6,i,-3.5,·,-6,0.69,O=C(COC(=O)CSc1cccc2cccc(Cl)c12)Nc1ncc(C(F)(F)F)cc1Cl
11,2.1,·,-4.9,·,·,15,·,0.67,O=C(CSc1nc2ccsc2c(=O)n1NC(=O)c1ccccc1)NCc1ccco1
-13,1.3,-9,1.7,i,1.7,12,-5,0.76,O=C(CSc1nnc(-c2ccccc2Cl)o1)N1CCCCC1
-1,0.3,·,1.4,·,·,·,·,0.68,COc1cccc(-c2nnc(SCC3CNC(=O)O3)n2-c2ccc(Cl)cc2)c1 (stereo unspecified)
